Source: PubChem BioAssay (several laboratories)
FGF22 binding: shifts melting point of recombinant human FGF22; Q9HCT0; recombinant FGF22 thermal shift, SYPRO orange fluorescence; percent of sucrose octasulfate shift, DMSO zero; calls only at 9.99 µM; 1.5% of 340,000 active;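 active means melting point raised past a set limit in the mean and every replicate; inconclusive means no clear call; three in four hits are not shown here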
Ecoli growth: E. coli growth inhibition | Escherichia coli growth, OD600, 23 h; hits give low values | OD600 absorbance (no concentration beside the values) | 0.21% of 330,000 active | AID 1053175;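 active means OD600 absorbance below the run mean of sample wells minus 3.6 SD, in any replicate, cut at about 0.56 in these data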;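 further: stock transfer was 300 nL into about 60 µL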
HNF4A DNA FP: change in binding of human HNF4 alpha to DNA. 0.3% of 360,000 active. AID 1224865. P41235. HNF4a-FITC DNA binding, fluorescence polarization, 1 h. activity change, % at 10 µM; in the data active means activity change above about 30%, passing the limit was not always enough;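 further: controls were the assay level and a saturating level of protein; the project sought stronger binding though the title names inhibitors; some compounds called inactive have numbers as strong as hits; positive values seem to mean higher polarization but the record does not say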
Target sequence (P41235 whole entry, looked up): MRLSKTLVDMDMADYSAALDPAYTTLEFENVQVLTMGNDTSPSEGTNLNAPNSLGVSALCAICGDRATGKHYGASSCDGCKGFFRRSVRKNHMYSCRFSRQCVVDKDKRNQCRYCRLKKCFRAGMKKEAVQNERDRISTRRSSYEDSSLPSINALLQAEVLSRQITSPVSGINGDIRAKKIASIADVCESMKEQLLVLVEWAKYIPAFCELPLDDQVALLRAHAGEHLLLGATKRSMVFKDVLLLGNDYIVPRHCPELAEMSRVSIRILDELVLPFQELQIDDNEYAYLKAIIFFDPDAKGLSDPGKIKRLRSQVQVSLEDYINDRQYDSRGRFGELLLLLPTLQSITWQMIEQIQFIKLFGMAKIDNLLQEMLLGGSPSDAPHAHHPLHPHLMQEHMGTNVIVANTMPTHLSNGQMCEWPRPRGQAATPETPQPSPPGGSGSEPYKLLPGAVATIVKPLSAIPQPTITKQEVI
MLL AF4-AF9 inh: MLL-AF4/AF9 protein interaction inhibition | P42568 | AlphaScreen, biotin-AF4 peptide binding to FLAG-AF9 | inhibition, % at 10 µM | 0.47% of 350,000 active | AID 651704;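 active means every replicate reaching a set inhibition limit, whatever the replicate mean, cut at about 25% in these data; inconclusive means mean inhibition reaches that limit but some replicates miss it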;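 further: 0% = plate neutral control median and 100% = total signal loss; the record names both 10 and 1 µM as test concentration; the first replicate is given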
Target sequence (P42568 whole entry, looked up): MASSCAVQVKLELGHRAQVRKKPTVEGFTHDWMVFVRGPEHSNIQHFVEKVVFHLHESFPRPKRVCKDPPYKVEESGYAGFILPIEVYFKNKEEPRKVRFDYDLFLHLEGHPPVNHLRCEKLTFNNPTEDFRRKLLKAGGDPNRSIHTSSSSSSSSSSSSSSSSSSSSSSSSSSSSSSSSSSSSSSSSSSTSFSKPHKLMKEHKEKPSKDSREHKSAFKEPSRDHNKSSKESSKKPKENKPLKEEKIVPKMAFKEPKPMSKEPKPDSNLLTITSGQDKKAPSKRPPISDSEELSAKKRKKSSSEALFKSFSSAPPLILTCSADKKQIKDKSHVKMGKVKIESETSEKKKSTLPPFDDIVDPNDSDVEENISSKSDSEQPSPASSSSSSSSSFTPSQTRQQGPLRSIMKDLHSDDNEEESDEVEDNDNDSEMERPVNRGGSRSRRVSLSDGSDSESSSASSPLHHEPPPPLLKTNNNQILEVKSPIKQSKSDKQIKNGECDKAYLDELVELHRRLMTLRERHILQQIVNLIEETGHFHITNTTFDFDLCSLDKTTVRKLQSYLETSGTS
UCH37 inh: human UCH37 deubiquitinating enzyme inhibition; purified proteasome/UCH37, Ub-AMC cleavage fluorescence; inhibition, % (no concentration beside the values); 0.33% of 330,000 active; AID 588478;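 active means mean of two replicates above 20%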;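 further: 0% = compound-free wells with enzyme and 100% = wells lacking proteasome; stock transfer was 100 nL into about 20 µL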
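Material: human UCH37 enzyme supplied as purified proteasome complex. Measure: % inhibition of Ub-AMC cleavage fluorescence. Medium: pH 7.4 Tris-HCl (50 mM) with ovalbumin, ATP-MgCl2, DTT. Times: 30 min preincubation with enzyme, 25 min cleavage at room temperature. Detection: AMC fluorescence intensity at 355/460 nm.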
Vif A3G: inhibitors of Vif binding to APOBEC3G peptide, primary screen, biochemical, TR-FRET, GST-Vif 1-94, biotin-A3G peptide, dose response retest (AID 1117319); TR-FRET GST-Vif / biotin-A3G peptide binding; higher % means a stronger effect; test concentration not given here; strong numbers were not always called active; inhibition, %; hits with a dose series show IC50 in µM; 0.57% of 260,000 active;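 active means above the screen mean plus three standard deviations and confirmed in dose response; inconclusive means results disagree or hit not tested in dose response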;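 further: Vif residues 1-94 fused to GST binding biotinylated APOBEC3G peptide 110-148; 0% = full assay without inhibitor and 100% = GST in place of GST-Vif; retest series ran down from 100 µM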
RanGTP-Impb inh: inhibitors of RanGTP-importin-beta interaction, primary screen, biochemical, FRET, CFP-Ran, YFP-importin-beta, homogeneous; inhibition, % (test concentration not listed); cell-free CFP-Ran/YFP-importin-beta FRET ratio; 1.1% of 300,000 active;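 active means most replicates above 15%; inconclusive means exactly half above 15%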;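 further: 0% = DMSO wells and 100% = Ran loaded with GDP instead of GTP; wells of about 40 µL received 100 nL stock; the first replicate is given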
Numbers without * were called inactive. These rows are one share of the data (hit frequency here may not be typical).

`Cc1ccc(CN2CCN(Cc3ccc(O)cc3)CC2CCO)o1` (centres undefined) gave FGF22 binding inactive, Ecoli growth 0.72, HNF4A DNA FP 2.9, MLL AF4-AF9 inh -0.6, UCH37 inh 0.9, Vif A3G -6% and RanGTP-Impb inh 0.0.
Screening c1ccc(-c2nnc3n2-c2ccccc2SC3)cc1 returned FGF22 binding inactive, Ecoli growth 0.62, HNF4A DNA FP 1.3, MLL AF4-AF9 inh -3.3, UCH37 inh -0.6 and RanGTP-Impb inh inconclusive.
c1ccn2cc(CSc3nnc4ccccn34)nc2c1 was read as FGF22 binding inactive, Ecoli growth 0.7, HNF4A DNA FP -4.6, MLL AF4-AF9 inh 1.1, UCH37 inh -1.4, Vif A3G 1% and RanGTP-Impb inh 1.6.
For COc1ccc(N(CC(=O)NCC2CCCO2)S(=O)(=O)c2c(C)noc2C)cc1 (centres undefined) the results were Ecoli growth 0.71, HNF4A DNA FP 1.1, UCH37 inh 5.2, Vif A3G 2% and RanGTP-Impb inh -0.4.
For Cc1cc(C(=O)CCC(=O)N2CCN(c3ccccc3O)CC2)c(C)s1 the results were FGF22 binding inactive, Ecoli growth 0.67, HNF4A DNA FP 1.4, MLL AF4-AF9 inh 0.5, UCH37 inh -1.8 and Vif A3G -7%.
Screening CCc1cc(CNC(=O)CC2C(=O)NCCN2Cc2ccccc2C(F)(F)F)on1 (centres undefined) returned FGF22 binding inactive, Ecoli growth 0.66, HNF4A DNA FP 7.9, MLL AF4-AF9 inh 2.8, UCH37 inh -2.1, Vif A3G -8% and RanGTP-Impb inh 2.1.
CCn1cc(CN2CCC(C(=O)Nc3cccc(-c4cccc(Cl)c4)c3)CC2)cn1 was read as FGF22 binding inactive, Ecoli growth 0.63, HNF4A DNA FP -1.0, MLL AF4-AF9 inh 2.3, UCH37 inh 4.7, Vif A3G -2% and RanGTP-Impb inh 2.8.
`COc1cc(CN2C[C@@H](CO)O[C@@H](n3cnc4c(N5CCN(c6ccccc6)CC5)ncnc43)C2)cc(OC)c1OC` gave FGF22 binding inactive, HNF4A DNA FP -0.1 and MLL AF4-AF9 inh 10.
`COc1ccccc1C(=O)N(C)CC(=O)Nc1ccc(N2CCOCC2)cc1` gave FGF22 binding inactive, Ecoli growth 0.71, HNF4A DNA FP -1.6, MLL AF4-AF9 inh -2.8, UCH37 inh 3.3 and Vif A3G -1%.
For CSc1ccc(CNC(=O)C2CCC(=O)N(Cc3cccc(F)c3)C2)cc1 (centres undefined) the results were FGF22 binding inactive, Ecoli growth 0.72, HNF4A DNA FP 4.8, MLL AF4-AF9 inh 0.4, UCH37 inh 0.8 and RanGTP-Impb inh -0.3.
COc1ccc(CC(=O)NCCCCc2ccccc2)cc1OC was read as FGF22 binding inactive, Ecoli growth 0.73, HNF4A DNA FP -4.2, MLL AF4-AF9 inh 5.1, UCH37 inh 2.9 and RanGTP-Impb inh 0.4.
`CSc1nc2ccc(NS(=O)(=O)c3ccc(Br)s3)cc2s1` gave FGF22 binding inactive, Ecoli growth 0.58, HNF4A DNA FP -2.2, UCH37 inh 3.1, Vif A3G 1% and RanGTP-Impb inh 2.6.
For COC(=O)c1ccc(C2OCC(C)(C)CO2)cc1 the results were FGF22 binding inactive, Ecoli growth 0.69, HNF4A DNA FP -3.4, MLL AF4-AF9 inh -0.1, UCH37 inh 3.0, Vif A3G 3% and RanGTP-Impb inh 4.8.
Screening Cc1ccc(Cl)cc1N1C(=O)CC(C)(C)CC1=O returned FGF22 binding inactive, Ecoli growth 0.64, HNF4A DNA FP 0.2, MLL AF4-AF9 inh -0.9, UCH37 inh 0.6, Vif A3G -11% and RanGTP-Impb inh 0.0.
Screening O=C(COC(=O)CNC(=O)c1ccccc1)Nc1ccc(Cl)cc1C(F)(F)F returned FGF22 binding inactive, Ecoli growth 0.64, HNF4A DNA FP 2.9, MLL AF4-AF9 inh -1.3, UCH37 inh -0.3, Vif A3G -4% and RanGTP-Impb inh -2.8.
For O=C(/C=C/c1ccc(Cl)cc1)N(Cc1ccccc1)c1ccccn1 the results were FGF22 binding inactive, HNF4A DNA FP 0.4, MLL AF4-AF9 inh 1.8, UCH37 inh 27*, Vif A3G 0% and RanGTP-Impb inh 4.5.
O=C(NC(Cc1ccccc1)C(=O)N1CCCCC1)c1ccccc1 (centres undefined) was read as Ecoli growth 0.7, HNF4A DNA FP -1.5, MLL AF4-AF9 inh -16, UCH37 inh 2.6, Vif A3G 0% and RanGTP-Impb inh 1.9.
For CC1CCN(c2ccc3nnc(CCC(=O)NC(C)C)n3n2)CC1 the results were FGF22 binding inactive, Ecoli growth 0.66, HNF4A DNA FP 1.9, MLL AF4-AF9 inh -2.5, UCH37 inh 6.4, Vif A3G -2% and RanGTP-Impb inh 2.8.
Screening c1ccc(CSc2ccc(-c3cccs3)nn2)cc1 returned Ecoli growth 0.69, HNF4A DNA FP -1.2, UCH37 inh 5.8 and RanGTP-Impb inh -4.0.
For O=C(O)c1ccccc1C(=O)N1CC=C(c2ccccc2)CC1 the results were HNF4A DNA FP 1.2, UCH37 inh 3.9, Vif A3G inconclusive and RanGTP-Impb inh 2.1.

The list goes on (two carried over from the part before).
Screening c1ccc(CSc2ccc(-c3cccs3)nn2)cc1 returned Ecoli growth 0.69, HNF4A DNA FP -1.2, UCH37 inh 5.8 and RanGTP-Impb inh -4.0.
For O=C(O)c1ccccc1C(=O)N1CC=C(c2ccccc2)CC1 the results were HNF4A DNA FP 1.2, UCH37 inh 3.9, Vif A3G inconclusive and RanGTP-Impb inh 2.1.
Screening COC/C=C/C1=CC2=CC(=O)C(C)(OC(=O)c3cnc4ccccc4n3)C(=O)C2=CN1CCCCO (centres undefined) returned FGF22 binding inactive, HNF4A DNA FP 2.4, MLL AF4-AF9 inh -19, UCH37 inh 5.9 and RanGTP-Impb inh 0.5.
For CN(C(=O)COC(=O)c1cc([N+](=O)[O-])ccc1Cl)c1ccccc1 the results were FGF22 binding inactive, Ecoli growth 0.69, HNF4A DNA FP 0.4, MLL AF4-AF9 inh -0.8, UCH37 inh 2.2 and RanGTP-Impb inh 1.8.
COc1cc(OC)cc(C(=O)NCCOc2ccccc2)c1 was read as Ecoli growth 0.8, HNF4A DNA FP -6.9, UCH37 inh 1.8, Vif A3G 6% and RanGTP-Impb inh -2.6.
c1cc2nncn2nc1N1CCCC1 was read as Ecoli growth 0.73, HNF4A DNA FP 5.3, UCH37 inh 6.7, Vif A3G -3% and RanGTP-Impb inh -1.0.
For Cc1ccc(SCCN2CCN(CCc3ccccc3)CCC2=O)cc1 the results were FGF22 binding inactive, Ecoli growth 0.68, HNF4A DNA FP -0.3, MLL AF4-AF9 inh -0.6, UCH37 inh 1.4 and RanGTP-Impb inh 4.0.
C/C(=N\NC(=O)CN1CCOCC1)C(C)(C)C was read as FGF22 binding inactive, HNF4A DNA FP 2.3, MLL AF4-AF9 inh 0.4, Vif A3G -2% and RanGTP-Impb inh -0.2.
`COC(=O)/C=C/c1ccccc1S(=O)(=O)N(Cc1ccccc1)Cc1ccco1` gave HNF4A DNA FP 1.3, UCH37 inh 2.1, Vif A3G inconclusive and RanGTP-Impb inh 0.0.
`Cc1cc(C)n(CCN(C)Cc2cn[nH]c2-c2ccc(F)cc2F)n1` gave FGF22 binding inactive, Ecoli growth 0.71, HNF4A DNA FP 7.5, MLL AF4-AF9 inh 0.1, UCH37 inh 3.3, Vif A3G -6% and RanGTP-Impb inh 1.6.
COc1ccccc1N1CCN(C2CC(=O)N(c3cccc(Br)c3)C2=O)CC1 (centres undefined) was read as FGF22 binding inactive, Ecoli growth 0.7, HNF4A DNA FP 2.9, MLL AF4-AF9 inh 7.4, UCH37 inh 1.0 and RanGTP-Impb inh inconclusive.
Cc1cccc2cc(CN(Cc3nnnn3C3CCCC3)C3CCCCC3)c(=O)[nH]c12 was read as Ecoli growth 0.71, HNF4A DNA FP -2.2, UCH37 inh 1.6, Vif A3G 6% and RanGTP-Impb inh -1.4.
Screening Cc1nn(C(=O)c2cccnc2)c(C)c1Sc1ccccc1 returned FGF22 binding inactive, Ecoli growth 0.72, HNF4A DNA FP 3.4, MLL AF4-AF9 inh -4.0, UCH37 inh 3.6, Vif A3G 1% and RanGTP-Impb inh -3.4.
Screening CCOC(=O)CNC(=O)CSc1nc(Cc2cccs2)nc2ccccc12 returned FGF22 binding inactive, Ecoli growth 0.65, HNF4A DNA FP 4.8, MLL AF4-AF9 inh -4.3, UCH37 inh 9.3, Vif A3G 8% and RanGTP-Impb inh 8.1.
O=C(CCc1ccccc1)N1CCCN(C(=O)CCc2ccccc2)CC1 was read as Ecoli growth 0.66, HNF4A DNA FP -17, UCH37 inh 0.8, Vif A3G -4% and RanGTP-Impb inh 0.1.
Screening Cc1cc(C)cc(NC(=O)CCC(=O)Nc2nnc(C(F)(F)F)s2)c1 returned FGF22 binding inactive, Ecoli growth 0.65, HNF4A DNA FP -2.8, MLL AF4-AF9 inh 0.7, UCH37 inh 4.1, Vif A3G -4% and RanGTP-Impb inh 0.7.
`CC1Cc2ccccc2N1C(=O)CSc1nccc(=O)[nH]1` (centres undefined) gave FGF22 binding inactive, Ecoli growth 0.71, HNF4A DNA FP 2.7, MLL AF4-AF9 inh -1.4, UCH37 inh 3.1, Vif A3G 2% and RanGTP-Impb inh -4.7.
`CS(=O)(=O)Nc1cccc(C2=NN(C(=O)CCC(=O)O)C(c3cccs3)C2)c1` (centres undefined) gave FGF22 binding inactive, Ecoli growth 0.63, HNF4A DNA FP 5.2, MLL AF4-AF9 inh -4.4, UCH37 inh 1.8, Vif A3G -6% and RanGTP-Impb inh -2.6.
CCOC(=O)/C(C#N)=C/Nc1ccccc1NS(=O)(=O)c1ccc(C)c(C)c1 was read as FGF22 binding inactive, Ecoli growth 0.75, HNF4A DNA FP 3.0, MLL AF4-AF9 inh -5.9, UCH37 inh 2.4 and RanGTP-Impb inh -0.6.
CN1CCN(CCN2CCn3c2nc2ccccc23)CC1 was read as Ecoli growth 0.76, HNF4A DNA FP 2.6, UCH37 inh 1.7, Vif A3G -1% and RanGTP-Impb inh -0.7.
O=S(=O)(Nc1cc(Cl)ccn1)c1ccc(Cl)cc1 was read as Ecoli growth 0.67, HNF4A DNA FP 1.8, UCH37 inh 1.0, Vif A3G inconclusive and RanGTP-Impb inh inconclusive.
Screening COc1ccccc1N(C)S(=O)(=O)c1ccc(C(=O)Nc2nc(C)c(C(C)=O)s2)cc1 returned FGF22 binding inactive, Ecoli growth 0.7, HNF4A DNA FP 8.0, MLL AF4-AF9 inh -0.5, UCH37 inh -63 and Vif A3G -128%.
CCCc1ccc(C(=O)N2CCN(c3ccccc3OCC)CC2)cc1 was read as FGF22 binding inactive, Ecoli growth 0.64, HNF4A DNA FP -1.6, MLL AF4-AF9 inh 7.4, UCH37 inh 0.7, Vif A3G inconclusive and RanGTP-Impb inh -0.7.
For COC(=O)N1C(=O)[C@@](Cc2ccccc2)(c2ccccc2)N1C(=O)OC the results were FGF22 binding inactive, Ecoli growth 0.71, HNF4A DNA FP 0.6, UCH37 inh 6.3 and RanGTP-Impb inh -8.0.
Cc1cccc(N/C(N)=N/c2nc(C)c(Cc3ccccc3)c(=O)[nH]2)c1 was read as Ecoli growth 0.66, HNF4A DNA FP 3.5, MLL AF4-AF9 inh -1.5, UCH37 inh -0.3, Vif A3G -6% and RanGTP-Impb inh 1.7.
`Cc1ccc(-n2cnc3cc(NCc4cccs4)ccc32)cc1` gave Ecoli growth 0.64, HNF4A DNA FP 3.3, UCH37 inh -3.5, Vif A3G 3% and RanGTP-Impb inh 19*.
Screening COc1cc(/C=N/N(C)C)ccc1OC(=O)c1ccco1 returned FGF22 binding inactive, HNF4A DNA FP -1.8, MLL AF4-AF9 inh 10, Vif A3G -2% and RanGTP-Impb inh 0.3.
